MARV entry inh: qHTS for inhibitors of binding or entry into cells for Marburg Virus. actives 1.8% (n = 300,000). Potency, µM (series often up to 37.8 µM), inactives show at the top dose activity change, negative = inhibition, most hits filed as inhibitors. Marburg virus pseudotyped entry inhibition, cell reporter; control for the full effect not named in the record; about a third of the inactives were read at about 46 µM. AID 540276, 2011; active = well fitted inhibition curve with a large enough effect; inconclusive = small, poorly fitted or top-dose-only effect, or effect the other way; inactive = flat fitted curve, though single readings scatter; tested in HEK293 cells; about a fifth of its hits are not listed in these tables; further: on the % scale 0 is the no-effect control and ±100 the full control effect; luciferase read-out
Cruzain Triton: qHTS Assay for Promiscuous and Specific Inhibitors of Cruzain (with detergent). Cruzipain (Trypanosoma cruzi), P25779. actives 0.43% (n = 200,000). Potency, µM, for the others: max response, negative = inhibition, actives largely listed as inhibitors. purified cruzain, Z-FR-AMC fluorescence, 0.01% Triton;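 further: plate controls were neutral wells for no effect and buffer without enzyme for full effect; nearly all actives have a fitted effect of over 40% in size; top concentration of the series not given in the record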
Target sequence (P25779 123-467 limits assumed): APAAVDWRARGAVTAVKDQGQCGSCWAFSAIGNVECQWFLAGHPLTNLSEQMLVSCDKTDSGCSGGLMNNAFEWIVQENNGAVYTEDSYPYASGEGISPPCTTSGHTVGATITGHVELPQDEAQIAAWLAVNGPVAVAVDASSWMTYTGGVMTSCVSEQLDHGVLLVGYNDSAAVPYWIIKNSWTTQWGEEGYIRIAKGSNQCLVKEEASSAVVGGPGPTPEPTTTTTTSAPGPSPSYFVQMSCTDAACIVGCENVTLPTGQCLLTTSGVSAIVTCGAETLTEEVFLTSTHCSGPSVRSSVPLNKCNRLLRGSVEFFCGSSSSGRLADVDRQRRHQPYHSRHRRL
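Enzyme 1.5 nM, Z-FR-AMC 2 uM, NaOAc 100 mM pH 5.5, DTT 5 mM, Triton X-100 0.01%; 15 min RT compound preincubation; kinetic ex360/em450, 60 s delta.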
StopGo reporter: High Throughput Screening for Foot and Mouth Disease Virus Antivirals. actives 1.2% (n = 410,000). Potency, µM (titrated, usually from 57.9 µM), for inactives: at the top dose signal change, negative = less light. AID 1159524, 2015. human cells with a luciferase reporter of 2A StopGo recoding; control for the full effect not named in the record; active = well fitted falling curve with a large enough effect; inconclusive = small, poorly fitted or top-dose-only effect; inactive = no such curve, though single readings can be large or run the other way; tested in HEK293T cells; further: on the % scale 0 is the no-effect control and ±100 the full control effect; nearly all actives have a fitted effect of over 45% in size; luciferase light after 4 h
NS1 inh: qHTS Assay for Inhibitors of Influenza NS1 Protein Function. S. cerevisiae slowed by influenza A NS1, growth recovery by OD600. AID 2326, 2010. actives 0.4% (n = 270,000). Potency, µM (titrated, usually from 46.1 µM), for inactives: top-dose activity, positive = more growth; active means well fitted rising curve with a large enough effect; inconclusive means small, poorly fitted or top-dose-only effect; inactive means no such curve, though single readings can be large or run the other way; further: nearly all actives have a fitted effect of over 50% in size
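Compounds were scored for reversing the slow growth caused by influenza A NS1 in S. cerevisiae, measured by optical density at 600 nm. Assay medium contained 2% galactose at pH 6.0; NS1-free yeast of the same strain were the positive control.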
SARS PLP yeast: qHTS of Yeast-based Assay for SARS-CoV PLP; S. cerevisiae expressing SARS-CoV PLpro, growth rescue; control for the full effect not named in the record; Potency, µM (series often up to 32.9 µM), for inactives: at the top dose activity, positive = growth rescue; actives 0.19% (n = 330,000); AID 485353, 2010; active means well fitted rising curve with a large enough effect; inconclusive means small, poorly fitted or top-dose-only effect; inactive means no such curve, though single readings can be large or run the other way; further: 0% is about no effect; nearly all actives have a fitted effect of over 55% in size; growth read by luminescence after 48 h
RE007 growth inh: qHTS Assay for Inhibitors of the HIV-1 protein Vpr; actives 0.21% (n = 360,000); S. pombe RE007 Vpr strain, BacTiter-Glo ATP luminescence, 24 h; control for the full effect not named in the record; AID 651644, 2012; Potency, µM (top dose mostly 92.2 µM), for inactives: at the highest dose activity change, negative = less growth; active = well fitted falling curve with a large enough effect; inconclusive = small, poorly fitted or top-dose-only effect; inactive = no such curve, though single readings can be large or run the other way;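 further: on the % scale 0 is the no-effect control and ±100 the full control effect; nearly all actives have a fitted effect of over 50% in size; the assay follows cell death caused by Vpr and the record does not say whether a fall means rescue or toxicity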
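Fission yeast strain RE007, carrying one chromosomally integrated HIV-1 vpr copy, was seeded at OD 0.01 in PMG+AL medium with 23 nL pinned compound. After 24 h at 30 °C and 99% humidity, viability was read by BacTiter-Glo luminescence.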
Lassa entry inh: qHTS for Inhibitors of binding or entry into cells for Lassa Virus. Lassa virus pseudotype entry inhibition, cell reporter; control for the full effect not named in the record. Potency, µM (titrated, usually from 37.9 µM), without a hit: at the top dose activity change, negative = inhibition, usual class: inhibitors. actives 1.2% (n = 300,000). AID 540256, 2011; active means well fitted inhibition curve with a large enough effect; inconclusive means small, poorly fitted or top-dose-only effect, or effect the other way; inactive means flat fitted curve, though single readings scatter; tested in HEK293 cells; further: on the % scale 0 is the no-effect control and ±100 the full control effect; nearly all actives have a fitted effect of over 50% in size; luciferase read-out
Cruzain inh noDet: qHTS Assay for Promiscuous and Specific Inhibitors of Cruzain (without detergent); purified cruzain, Z-FR-AMC fluorescence, no detergent; Potency, µM, for the others: max response, negative = inhibition, most hits filed as inhibitors; AID 1476, 2009; actives 2.3% (n = 200,000);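 further: plate controls were enzyme without inhibitor for no effect and buffer without enzyme for full effect; nearly all actives have a fitted effect of over 40% in size; top concentration of the series not given in the record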
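Purified cruzain at 1.5 nM, pre-incubated 15 min with compound at room temperature in 100 mM sodium acetate pH 5.5, 5 mM DTT, 0.00005% Triton X-100. Reaction started with 2 uM Z-FR-AMC; AMC fluorescence increase over 60 s gives rate.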
An asterisk follows results filed as active; u = inconclusive; x = no result given; & = joins results of further samples; [ ] = dose if it differs, or a comment. Unless noted, the call rests on the fitted dose curve; in most records, active means well fitted curve in the direction sought with a large enough effect; inconclusive means small, poorly fitted or top-dose-only effect, or another doubt; inactive means no such curve, though single readings can be large; an effect the other way counts as inactive or inconclusive. Potency means the concentration at half of the fitted maximal effect. The order is random. About 4.6% of those tested had a hit in this group.

no.	canonical_smiles	MARV entry inh	Cruzain Triton	StopGo reporter	NS1 inh	SARS PLP yeast	RE007 growth inh	Lassa entry inh	Cruzain inh noDet
1	Cc1oc(C)c(C(N)=O)c1C(N)=O	18.4%	-0.9%	-22.6%	4.1%	2.4%	23.1%	14.7%	-1.8%
2	Cc1ccn2cc(CCNC(=O)c3ccc(Br)o3)nc2c1	x	-3.0%	-5.0%	3.5%	8.3%	2.2%	x	-11.6%
3	O=C(c1ccc([N+](=O)[O-])c(CS(=O)(=O)c2ccc(Cl)cc2)c1)N1CCCC1	-0.6%[46.1 µM]	x	-17.2%	x	-1.0%	5.4%	1.3%	x
4	Cc1cc(C)nc(N/N=C/c2cc(Br)ccc2O)n1	u	x	-20.5%	-4.1%	9.3%	u	u	x
5	CCCCC(=O)Nc1ccc2c(c1)OCCO2	14.8%	2.9%	54.1%[activator]	-3.3%	5.5%	-12.7%	0.0%	-0.7%
6	C(=C\c1ccccc1)/CN1CCN(Cc2ccc3c(c2)OCCO3)CC1	-1.8%	1.5%	x	14.0%	-4.7%	x	x	6.6%
7	COc1ccc(NC(=O)Cn2c(=O)c3ccccc3n3nncc23)c(OC)c1	8.8%[46.1 µM]	1.1%	-12.5%	x	x	x	21.3%[46.1 µM]	-1.5%
8	S=C1CN=C(c2ccccc2Cl)c2cc(Cl)ccc2N1	-21.8%	-8.8%	0.0%	-1.5%	3.5%	0.4%	u	-5.6%
9	O=C(NCCCNc1ccnc2cc(Cl)ccc12)c1ccccc1F	x	x	-29.1%	0.4%	0.4%	3.5%	x	x
10	O=c1[nH]c2ccccc2cc1CN(Cc1ccco1)S(=O)(=O)c1ccccc1	u	x	u	13.5%	-1.8%	3.6%	-6.0%	x
11	CC(C)(C)NC(=O)Nc1nnc(SCC(=O)NC2CCCCC2)s1	12.1%	x	23.4%	x	4.8%	1.1%	22.1%	x
12	COc1ccc2[nH]c(=O)c(CN(c3ccccc3OC)S(=O)(=O)c3ccccc3)cc2c1	x	x	0.0%	u	5.1%	1.1%	x	x
13	CCCCC1=NN(C(=O)c2cccnc2)C(O)(C(F)(F)F)C1 (stereo not given)	7.6%	x	-23.3%	-1.0%	-0.5%	9.8%	8.4%	x
14	COc1ccc(C2=NOC(COc3ccc4c(C)cc(=O)oc4c3)C2)c(OC)c1 (stereo not given)	u	x	2.9%	-3.2%	-1.4%	-3.5%	u	x
15	Cc1cc(NC(=O)Cn2nc(C(F)(F)F)c3c2CCC3)n(-c2ccccc2)n1	u	3.2%	u	-2.0%	-4.8%	5.3%	0.4%	-5.1%
16	COc1ccccc1CN(CC(=O)NCc1ccc2c(c1)OCO2)C(=O)c1ccc2c(c1)OCCO2	-19.2%	-0.8%	19.8%	-12.4%	-21.4%	-7.7%	-23.5%	6.4%
17	S=C(CSc1ccccc1)Nc1cccc2ccccc12	x	-3.6%	33.4%[activator]	-31.3%	x	-26.1%	x	7.6%
18	CCCCOc1ccccc1NC(=O)CC1Nc2ccccc2NC1=O (stereo not given)	u	-0.4%	x	-58.0%	10.8%	-16.5%	-27.1%	25.1µM*
19	Cc1nn(Cc2ccccc2Cl)c(C)c1C(=O)NCc1ccco1	10.0%	4.0%	-18.9%	-6.7%	0.0%	7.1%	3.3%	u
20	COc1cccc(C(=O)O/N=C2\CCS(=O)(=O)c3sccc32)c1	11.2%[14.2 µM]	x	32.0%[activator]	1.3%	0.6%	-2.4%	-0.7%	x
21	O=C(CN1C(=O)COc2ccc(Cl)cc21)Nc1ccc2c(c1)OCCO2	-12.9%	-1.6%	14.7%	-3.3%	2.7%	0.8%	u	-7.6%
22	COc1ccc(C2=C(C)C(=O)N(Cc3ccc(C(=O)NCc4ccccc4C)cc3)S2(=O)=O)cc1	x	-20.1%	-16.7%	x	x	x	u	u
23	CSc1nnc(N2C(=O)C(O)=C(C(=O)c3ccco3)C2c2ccccc2F)s1 (stereo not given)	x	x	7.4%	28.8%	13.3%	4.1%	x	x
24	COc1ccc(-n2cc(-c3ccc4c(c3)OCO4)n(CC(=O)Nc3cccc(C)c3C)c2=O)c(OC)c1	u	-5.6%	u	x	x	x	u	-3.3%
25	CCc1nnc(NCn2nc(C)cc2C)s1	-4.5%	7.8%	-20.9%	-15.4%	x	3.7%	15.7%	14.0%
26	CCOc1ccc(CCNC(=O)COC(=O)c2ccc(S(C)(=O)=O)cc2)cc1OCC	0.3%	x	-18.5%	x	-3.2%	15.3%	9.2%	x
27	CC1(C)CC(NC(=O)c2cccc(S(=O)(=O)N(Cc3ccccc3)c3ccccc3)c2)CC(C)(C)N1	u	x	-13.8%	x	-3.5%	29.3%	-46.7%	x
28	Oc1c(C=Nc2ccccc2)sc2ccccc12	u	x	-63.4%	1.7%	-0.7%	-29.6%	u	x
29	O=C(O)CSc1nnc(COc2ccc(Br)cc2)n1-c1ccccc1	1.0%[46.1 µM]	x	-6.9%	u	0.2%	-10.8%	16.8%[46.1 µM]	x
30	CC(=O)Nc1ccc(NC(=O)C2CCCN(S(=O)(=O)c3ccc4c(c3)CCCC(=O)N4)C2)cc1 (stereo not given)	x	-1.7%	-10.3%	x	x	x	22.1%[46.1 µM]	9.8%
31	O=C(Nc1nc(-c2ccccc2)cs1)c1ccco1	-0.8%[46.1 µM]	x	-0.9%	-48.6%	-4.5%	u	-1.3%[46.1 µM]	x
32	Cc1ccccc1NCCNc1ccccc1C	1.3%&-5.9%	-3.1%	x	-20.7%	-2.8%	5.5%	-13.0%	7.2%
33	Cc1ccc(S(=O)(=O)NC(C)C(=O)NC(C)c2cccs2)cc1 (stereo not given)	7.2%[46.1 µM]	x	-25.8%	-3.3%	1.4%	-8.0%	-2.6%	x
34	CCN(CC)CCNC(=O)c1c(C)oc2cc(Br)c(OC)cc12	u	0.1%	9.5%	7.2%	-2.7%	3.9%	u	-1.8%
35	O=C(c1ccc(Cl)cc1)N1CCN=C1c1ccccc1	-1.3%	0.2%	-16.7%	4.9%	14.4%	-9.6%	u	4.2%
36	Nc1nnnn1/N=C/c1cccc(OCc2ccccc2Cl)c1	11.7%	-0.1%	-13.6%	1.3%	17.1%	-7.0%	u	u
37	CCOC(=O)N1CCN(C(=O)Cn2ncn3nc(-c4cccs4)cc3c2=O)CC1	2.1%&2.1%	-1.2%	0.0%	-5.4%	4.0%	-12.4%	-2.6%	2.2%
38	COc1ccc(CCN(C)C(=O)C2CCN(Cc3ccc(C)cc3)CC2)cc1OC	x	x	-9.0%	0.7%	0.4%	-13.7%	x	x
39	COCCn1nnnc1CN(CCc1ccc(OC)c(OC)c1)Cc1cc2ccc(C)cc2[nH]c1=O	-15.6%&-15.6%	-1.5%	-23.7%	-8.2%	-9.5%	2.5%	-29.0%	u
40	CS(=O)(=O)N(CC(N)=O)c1ccc(F)c(Cl)c1	10.7%	13.3%	u	1.6%	3.7%	7.7%	6.5%	-3.8%
41	Nc1cc(Cl)c(NC2=NCCN2)c(Cl)c1	u	1.4%	x	-3.8%	x	x	u	3.1%
42	COc1ccccc1CNC(=O)C1CC2Cn3c(nc4ccccc43)C2N1C (stereo not given)	x	x	-2.0%	6.1%	-3.9%	-12.1%	x	x
43	OC(COc1cccc2ccccc12)CN1CCN(c2ccccc2)CC1 (stereo not given)	x	x	-10.3%	4.5%	-1.8%	-20.8%	x	x
44	CCCNS(=O)(=O)c1ccc(OCC(=O)N2CCN(Cc3ccc4c(c3)OCO4)CC2)cc1	2.2%&2.2%	8.2%	-24.6%	-15.0%	3.3%	12.1%	u	2.6%
45	Cc1nn2c(=O)cc(COc3ccc(/C=C(\C#N)C(=O)Nc4ccc(F)cc4)cc3)nc2s1	2.7%[46.1 µM]	-0.5%	0.0%	x	x	x	4.0%[46.1 µM]	-3.4%
46	CC(=O)N1CCN(CC(=O)Nc2c(Cl)cccc2Cl)CC1	-9.1%	7.6%	-18.7%	-7.4%	6.6%	-9.4%	-1.5%	1.3%
47	CC1(C)CC(=O)c2cc(O)ccc2O1	-2.5%	-3.4%	5.5%	-8.6%	-0.7%	3.9%	7.0%	0.2%
48	COc1ccc(C(=O)Nc2ccc(OC)c([N+](=O)[O-])c2)cc1Br	x	x	-3.0%	5.3%	-3.4%	8.1%	x	x
49	Cc1cc(=O)oc(C)c1C(=O)NCCCN1CCN(c2ccc(F)cc2)CC1	u	-0.3%	0.0%	5.1%	0.0%	-2.5%	-4.3%	-10.9%
50	CC(=O)c1c(C)oc2ccc(NS(=O)(=O)c3ccc(C)cc3)cc12	-14.6%[46.1 µM]	x	-11.3%	9.7%	1.3%	-10.9%	-8.0%[46.1 µM]	x
51	COc1ccc2c(=O)c3c(=O)n(CCc4ccccc4)c(C(C)C)nc3oc2c1	17.8%[46.1 µM]	x	-12.2%	0.9%	-0.2%	-4.6%	4.4%	x
52	CCOc1ccc(NC(=O)c2cc3cc4ccc(C)cc4nc3o2)cc1	9.2%&9.2%[46.1 µM]	-1.1%	-13.2%	x	1.5%	x	-0.4%[46.1 µM]	10.5%
53	COc1c(C)cccc1C(=O)Nc1cc(Cl)ccc1N1CCOCC1	u	-2.8%	u	-94.3%	2.0%	9.6%	0.9%	-1.4%
54	Cc1csc2nc(COC(=O)c3ccccc3NC(=O)c3ccc(F)cc3)cc(=O)n12	x	2.1%	u	x	x	x	-4.6%[46.1 µM]	-4.7%
55	CC(C)(C)C(=O)Nc1ccccc1N1CCN(c2ccc(F)cc2)CC1	-16.4%	x	u	3.5%	-5.1%	41.2%	-5.8%	x
56	Cc1csc(NC(=O)Cc2c[nH]c3ccccc23)n1	2.8%	-0.8%	16.6%	-45.2%	-4.3%	25.4%	u	5.2%
57	CC(=O)NC(=S)Nc1cccc2ccc(C)nc12	10.1%	x	-2.6%	0.4%	8.2%	-14.0%	14.4%	x

Assay outcomes deposited in PubChem by National Center for Advancing Translational Sciences (NCATS).
